# YopH inh: YopH tyrosine phosphatase inhibitors, primary screen, biochemical, fluorescence Ex485/Em525; inhibition, %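 (about 10 µM by stock and volumes)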; actives 0.16% (n = 140,000); YopH tyrosine phosphatase [Yersinia enterocolitica];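 active = inhibition of 50% or more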;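 also: controls were vehicle for no effect and minimum signal wells for full effect; inactives centre near -20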
# Arbovirus anti: antivirals against arbovirus infection, primary screen, cell-based, full library, 10K replicate subset; inhibition, % at 10 µM; arbovirus infection cell-based antiviral screen; actives 0.37% (n = 200,000);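 active = inhibition from about 30%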;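 also: bluetongue infection of BSR cells; cell survival read as ATP light after 72 h; 0% = infected wells without compound and 100% = uninfected wells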
# Mtb H37Rv: M. tuberculosis H37Rv growth inhibitors, H37Rv strain (AID 1626). M. tuberculosis H37Rv growth inhibition; higher % means a stronger effect. inhibition, % at 10 µM, or IC50 in µM where a hit was titrated. actives 0.95% (n = 220,000);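 active = confirmed in a dose series; inconclusive = inhibition above 80% but not taken into the dose series; inactive = below 80% or under 30% at every dose of the series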;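 also: bacteria incubated seven days before Alamar blue readout; 0% = bacteria only wells and 100% = bacteria with antibiotic wells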
# RecA splice inh: Mtb RecA intein splicing inhibitors, primary screen, biochemical, fluorescence, HTS; Protein RecA (Mycobacterium tuberculosis (strain ATCC 25618 / H37Rv)), P9WHJ3; inhibition, %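 (about 9 µM by stock and volumes)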; actives 0.75% (n = 290,000); cell-free RecA intein splicing; in the data active = inhibition above about 30%; inconclusive = no clear call, values can overlap the other calls;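 also: 0% = vehicle wells and 100% = reference inhibitor control wells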
# Target sequence (P9WHJ3 whole entry, looked up, canonical isoform): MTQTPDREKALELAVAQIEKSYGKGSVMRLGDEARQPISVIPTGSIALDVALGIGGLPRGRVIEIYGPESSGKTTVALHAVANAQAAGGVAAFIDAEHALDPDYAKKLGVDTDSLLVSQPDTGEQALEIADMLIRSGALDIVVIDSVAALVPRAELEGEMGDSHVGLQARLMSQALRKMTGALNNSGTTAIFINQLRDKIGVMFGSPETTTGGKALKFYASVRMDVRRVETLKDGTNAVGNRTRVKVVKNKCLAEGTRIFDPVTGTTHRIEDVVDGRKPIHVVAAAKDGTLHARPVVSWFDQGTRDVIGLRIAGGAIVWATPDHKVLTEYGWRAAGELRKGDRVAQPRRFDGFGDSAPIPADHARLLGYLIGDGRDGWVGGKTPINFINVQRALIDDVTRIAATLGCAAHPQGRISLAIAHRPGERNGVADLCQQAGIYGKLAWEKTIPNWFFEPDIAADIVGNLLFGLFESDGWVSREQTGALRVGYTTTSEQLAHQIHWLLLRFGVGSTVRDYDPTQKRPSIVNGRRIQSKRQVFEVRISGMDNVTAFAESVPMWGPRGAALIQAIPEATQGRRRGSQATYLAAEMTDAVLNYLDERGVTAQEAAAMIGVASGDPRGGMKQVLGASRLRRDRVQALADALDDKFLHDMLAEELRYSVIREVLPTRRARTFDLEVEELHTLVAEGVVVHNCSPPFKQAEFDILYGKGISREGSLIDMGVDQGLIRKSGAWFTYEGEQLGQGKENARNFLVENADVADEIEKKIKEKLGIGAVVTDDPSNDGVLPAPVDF
# Mtb bLac sens: beta-lactam sensitization of Mtb H37Rv, H37Rv. actives 0.27% (n = 330,000). inhibition, % at 25 µM. AID 434955, 2010. M. tuberculosis H37Rv growth with meropenem, percent inhibition; hits of this screen are not shown here;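 active = about 74% or more and at least 40 points above the plate without the antibiotic, then above 30% in a dose series; inconclusive = first-round hits that could not be retested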;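 also: growth measured after seven days incubation then overnight dye step; 0% = bacteria only wells and 100% = bacteria with antibiotic; twin plates without the antibiotic show which effects depend on it; some results filed as inactive read as strong as hits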
# Arbovirus anti repeat: recorded beside Arbovirus anti, whose call it bears; inhibition, %; measured here: 10K subset replicate screen; many hits read low in the repeat;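 first of two repeat runs on a subset; 0% = infected and 100% = uninfected wells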
# An asterisk follows results filed as active; ? = inconclusive; · = not tested or not shown. The list is partial, so the mix of outcomes need not match the whole.
# The opening 4 records (preview)
SMILES,YopH inh,Arbovirus anti,Mtb H37Rv,RecA splice inh,Mtb bLac sens,others
CCOC(=O)c1cc([N+](=O)[O-])c([N+](=O)[O-])cc1NC(C)=O,-26,-34,79%,1.4,100,
Cc1nc(CCl)cc(=O)[nH]1,·,15,2%,-4.8,59,
CC(Oc1cccc2cccnc12)C(=O)N/N=C/c1ccccc1 (stereo not given),·,-4,1%,5.3,4,
O=C(CCNC(=O)c1ccc([N+](=O)[O-])cc1)Nc1cccc(S(=O)(=O)N2CCCCC2)c1,·,·,3%,-14,-7,

# Main list, repeating the preview:
SMILES,YopH inh,Arbovirus anti,Mtb H37Rv,RecA splice inh,Mtb bLac sens,others
CCOC(=O)c1cc([N+](=O)[O-])c([N+](=O)[O-])cc1NC(C)=O,-26,-34,79%,1.4,100,
Cc1nc(CCl)cc(=O)[nH]1,·,15,2%,-4.8,59,
CC(Oc1cccc2cccnc12)C(=O)N/N=C/c1ccccc1 (stereo not given),·,-4,1%,5.3,4,
O=C(CCNC(=O)c1ccc([N+](=O)[O-])cc1)Nc1cccc(S(=O)(=O)N2CCCCC2)c1,·,·,3%,-14,-7,
O=C(O)CC(c1ccc(Cl)cc1)N1Cc2ccccc2C1=O (stereo not given),·,·,·,-1.6,1,
O=C(O)CNS(=O)(=O)Cc1ccccc1,·,·,-6%,-0.2,-3,
COc1ccc(Oc2nc(C)nc3c2oc2ccccc23)cc1,-38,5,-5%,·,7,
CC(C)CC(c1nnnn1C1CCCC1)N1CCN(C(=O)c2ccco2)CC1 (stereo not given),-63,6,3%,-5.0,-8,
CCc1nc(SCC(=O)NCc2ccco2)c2c3c(sc2n1)CCCC3,-21,3,1%,0.1,-2,
CN(C)S(=O)(=O)N1CCc2ccc(NC(=O)c3ccc(C(F)(F)F)cc3)cc2C1,·,·,·,0.6,6,
CCN(CC)c1cc(C)c(C#N)c2nc3ccccc3n12,·,·,-5%,-34,-1,
O=C(COc1ccc2ccc(=O)oc2c1)N1CCN(c2ccccc2)CC1,·,-6,5%,-1.2,3,
CCS(=O)(=O)CCn1c([N+](=O)[O-])cnc1C,-15,6,-9%,0.7,2,
Cc1noc(C)c1CSc1ccc(Br)cc1,-25,-4,0%,-1.2,1,
COc1ccc(N=Nc2cc(C)c(O)c(CN3CCCCC3)c2)cc1,·,·,7%,6.4,26,
CCOC(=O)CNC(=O)c1cccnc1,-122,7,3%,-0.3,-9,
C/C(=N\O)C(=O)OC1CC(C)CCC1C(C)C (stereo not given),-2,6,2%,0.9,4,
Cc1cc(OCC(=O)NN2C(=O)c3ccccc3C2=O)ccc1Cl,·,·,·,0.9,3,
O=C(CSCC(=O)N1CCCCC1)Nc1nc(-c2ccc(Cl)s2)cs1,-55,-11,44µM*,2.6,-5,
CS(=O)(=O)Nc1cccc(C2=NN(C(=O)c3cccc([N+](=O)[O-])c3)C(c3cccs3)C2)c1 (stereo not given),·,·,·,4.9,17,
Cc1ccc(OCc2cc(C(=O)NC3CCc4ccccc43)no2)cn1 (stereo not given),·,·,·,2.6,7,
CN1C(=O)CSc2ccc(NC(=O)N3CCC(N4CCCCC4)CC3)cc21,-29,8,-6%,·,6,
O=C(N/N=C/c1cccnc1)c1ccc2c(c1)OCCO2,-14,2,0%,-2.2,-9,
O=C(O)CCC(=O)Nc1ccc(OCC2CCCO2)cc1 (stereo not given),·,·,·,0.7,0,
Cc1csc(NC(=O)c2ccccc2[N+](=O)[O-])n1,-11,0,1%,-0.8,3,
Cn1cccc1C(=O)OCC(=O)N1c2ccccc2NC(=O)C1(C)C,·,1,1%,2.1,-14,
CCC1=NN(C(=O)Cc2ccccc2)C(O)(c2ccncc2)C1 (stereo not given),·,0,-9%,·,8,
Cc1cc(NC(=S)NC(=O)/C=C/c2ccc(S(=O)(=O)N3CCOCC3)cc2)ccc1Br,·,9,26%,-0.8,8,
COc1ccccc1NS(=O)(=O)c1ccc(N/N=C/c2c(C)nn(-c3ccccc3)c2N2CCCC2)c([N+](=O)[O-])c1,-34,0,9%,-3.7,3,
CC1=C(C(=O)Nc2ccccc2)C(c2ccccn2)n2nc(CCCO)nc2N1 (stereo not given),·,-1,3%,1.2,-4,Arbovirus anti repeat=-2
CC(C)c1ccc(-n2c(O)c(/C=N/NC(=O)c3ccccc3O)c(=O)[nH]c2=S)cc1,·,·,7%,9.1,2,
O=C(CCCN1Cc2ccccc2C1)c1ccc(F)cc1,-2,-3,5%,-1.2,-1,
O=C(Nc1ccc2oc(-c3ccncc3)nc2c1)c1cccs1,3,-1,-3%,-11,1,
Clc1ccccc1/C=N/Nc1cc(N2CCOCC2)ncn1,·,·,·,-0.1,-4,
Cn1c(CNC(=O)C(Cc2ccccc2)NC(=O)c2ccccc2F)cc(=O)n(C)c1=O (stereo not given),·,·,·,0.3,-2,
CCCN1C(=O)/C(=N\OCC(=O)Nc2ccc(C(C)C)cc2)c2ccccc21,0,1,7%,-1.5,5,
CN(C(=O)COc1ccc(Oc2ccccc2)cc1)C1CCS(=O)(=O)C1 (stereo not given),·,·,·,1.1,-7,
Cc1ccc(CNC(=O)CCCN2C(=S)NC(C)(C)CC2C)cc1 (stereo not given),·,4,6%,0.1,4,
COc1cc(/C=C/C(=O)NCCN2CCOCC2)cc(OC)c1OC,-18,6,1%,-1.9,4,
COc1ccc(C(C)C)cc1S(=O)(=O)n1ccnc1C,0,7,-1%,3.8,0,
Cc1cc(NC(=S)N(CCN2CCCCC2)Cc2ccco2)ccc1Cl,·,12,3%,2.3,-7,
CC(=O)c1ccc(OCc2cc(C(=O)NCCn3nc(C)cc3C)no2)cc1,·,·,·,1.9,3,
O=C(NCc1ccco1)c1cccc(NC(=O)c2ccco2)c1,-19,-41,1%,-5.3,0,
CSc1ccc(S(=O)(=O)N2CCC(C(=O)NCCCn3ccnc3)CC2)cc1,·,·,·,-1.1,-2,
COc1ccc(-c2nn(-c3ccccc3)cc2/C=C/C(=O)O)cc1[N+](=O)[O-],·,·,4%,0.2,1,
CC(C)(C)n1nc2c(c1NC(=O)Cc1ccc(F)cc1)CS(=O)(=O)C2,·,·,·,3.4,-3,
Cc1cccc(C)c1NC(=O)NNC(=O)c1cc(C(C)(C)C)nn1Cc1ccccc1,·,·,-4%,-3.1,-13,
CCOC(=O)N1CCN(C(=O)c2ccc3c(c2)NC(=O)/C(=C/c2ccccc2)S3)CC1,·,·,·,-16,72,
CCCC(c1nnnn1Cc1ccco1)N1CCC(C(N)=O)CC1 (stereo not given),-11,9,8%,4.7,4,
Cc1cccc(/C=c2\s/c(=C\C(=O)C(C)(C)C)[nH]c2=O)c1,-121,-8,0.47µM*,2.0,95,
CCn1nc(NS(=O)(=O)c2ccc(F)cc2)c2cc3cccc(C)c3nc21,·,·,·,-1.1,-2,
Cc1onc(-c2c(F)cccc2Cl)c1C(=O)N(C)C1CCCCC1,·,·,·,2.0,-11,
O=c1oc2ccccc2cc1-c1nc2c(s1)CCc1ccccc1-2,-5,11,12%,-51,3,
CC(NC(=O)c1ccccc1NC(=O)c1ccncc1)c1ccccc1 (stereo not given),·,-1,6%,-0.9,2,
CCC1=Nc2cc(C(=O)O)ccc2Sc2ccccc21,-42,-1,-1%,18,1,
O=C1c2ccccc2C(=O)c2c1cccc2N(CCO)CCO,·,·,·,5.5,-4,
C=CCN(CC=C)S(=O)(=O)c1ccc(NC(=S)NC(=O)c2ccc(-c3ccccc3)cc2)cc1,-18,-5,6%,7.5,1,
CC(=O)N/C(=C\c1ccc(F)cc1)C(=O)N(C)C,-22,0,-6%,-0.5,0,
Cc1c(C(=O)O)sc2nc3n(c(=O)c12)CCC(C)CC3 (stereo not given),-23,0,-4%,-2.9,-12,
Cc1cc(CNC(=O)COc2ccc(F)cc2F)c2ccccc2n1,·,3,-3%,-2.0,-7,

# Next part, overlapping the part above by three compounds.
SMILES,YopH inh,Arbovirus anti,Mtb H37Rv,RecA splice inh,Mtb bLac sens,others
CC(=O)N/C(=C\c1ccc(F)cc1)C(=O)N(C)C,-22,0,-6%,-0.5,0,
Cc1c(C(=O)O)sc2nc3n(c(=O)c12)CCC(C)CC3 (stereo not given),-23,0,-4%,-2.9,-12,
Cc1cc(CNC(=O)COc2ccc(F)cc2F)c2ccccc2n1,·,3,-3%,-2.0,-7,
Cn1nc(C(C)(C)C)cc1NC(=O)Nc1ccc(F)cc1F,·,·,1%,1.8,-6,
O=C(Nc1cccc(F)c1)N1C2CCC1CC(O)(c1cccnc1)C2 (stereo not given),·,-4,1%,-0.5,0,
CCN1CCN(c2nc([N+](=O)[O-])nn2C)CC1,·,·,6%,1.2,1,
CCOc1ccc(C(NC(C)=O)c2ccc(OC)c(OC)c2)cc1 (stereo not given),·,4,2%,-0.5,-2,
CC1=Nc2cc(C(=O)N3CCC4(CC3)OCCO4)ccc2Sc2ccc(Cl)cc21,·,·,·,3.1,0,
CCOc1ccccc1N(CC(=O)NCc1ccc(OC)cc1)S(C)(=O)=O,-25,0,-9%,-1.7,-5,
O=C(Cc1ccc(F)cc1)Nc1ccccc1Sc1ccccc1,-21,-2,6%,3.1,?,
COc1cc(C)c(Br)cc1S(=O)(=O)NCc1cccs1,·,·,·,-0.2,-9,
O=C(CN1CCN(CC(=O)Nc2ccc3c(c2)OCO3)CC1)Nc1ccc(F)cc1,20,-6,6%,-1.8,2,
CCOc1c(Br)cc(C2CC(=O)Nc3cc(OC)c(OC)cc32)cc1OC (stereo not given),·,·,·,-3.4,-7,
Cc1c(C(=O)O)oc2ccc(S(=O)(=O)N3CC(C)CC(C)C3)cc12 (stereo not given),-62,8,-9%,-0.1,-4,
COCC1CCN(C(=O)c2ccc3oc(CCCc4ccccc4)nc3c2)C1 (stereo not given),·,·,·,-0.1,-12,
CCCCC(Br)C(=O)Nc1ccc(S(=O)(=O)Nc2cc(C)nc(C)n2)cc1 (stereo not given),·,·,·,3.0,7,
Cc1ccccc1-c1nc2cc(Cl)ccc2c(=O)o1,·,·,·,-3.6,23,
COCCN1CCCC(CNCc2cn(C)nc2-c2ccc(Oc3ccccc3)cc2)C1 (stereo not given),·,-35,0%,-0.6,-5,
COc1ccc(NC(=O)c2ccccc2N(Cc2ccccc2)S(C)(=O)=O)cc1,·,2,6%,1.1,-5,
Cc1cc(=O)n2nc(N3CCCC(C(=O)NCc4ccccc4C)C3)sc2n1 (stereo not given),·,·,·,-0.6,-8,
N#Cc1cc2c(=O)n3ccccc3nc2n(Cc2ccco2)c1=NC(=O)c1ccco1,-10,-2,-7%,-32,-1,
CC(C)(C)OC(=O)CNC(=O)c1nc[nH]c1C(=O)N1CCNCC1,·,·,·,-0.6,-2,
O=C(Nc1nccs1)C(=O)c1c[nH]c2ccccc12,-1,-4,-3%,2.5,2,
Cc1sc2nc(CN3CCOCC3)[nH]c(=S)c2c1C,·,18,13µM*,0.7,95,
Cc1oc(C(C)(C)C)cc1C(=O)N1CCN(c2ncccc2C(F)(F)F)CC1,·,·,-3%,7.2,-3,
COc1ccc(C2C([N+](=O)[O-])=C(N)Oc3c2c(=O)oc2ccccc32)cc1 (stereo not given),-15,-4,-10%,0.9,4,
O=C1C2CCCCN2C(=O)N1CCCCN1CCN(c2ccccc2Oc2ccccc2)CC1 (stereo not given),·,·,·,0.7,-4,
Cc1cccc(NC(=O)c2cccc(N3C(=O)CCC3=O)c2)c1,·,·,·,0.5,11,
COc1cc(/C=C2\SC(=Nc3cccnc3)NC2=O)cc(OC)c1OC,·,·,-6%,-2.0,-7,
Cn1cc(CN2CCC(n3nccc3NC(=O)Cc3ccccc3)CC2)cn1,·,·,·,-0.8,0,
c1cncc(-c2nn[nH]n2)c1,-34,7,-2%,-0.3,-8,
COc1cccc(/C(O)=C2/C(=O)C(=O)N(CCN(C)C)C2c2ccccn2)c1 (stereo not given),-7,2,-12%,-0.9,-2,
OC(CN1CCc2ccccc2C1)c1ccccc1 (stereo not given),·,-2,1%,1.7,3,
CC(=O)c1ccc(Sc2ccccc2N)c([N+](=O)[O-])c1,·,·,-13%,2.1,-4,
O=C(c1cn(-c2ccccc2)nc1-c1cccnc1)N1CCCC(C(F)(F)F)C1 (stereo not given),·,·,·,-0.1,-12,
COc1ccccc1C1CCN(Cc2ccc3ccccc3c2)CC1,·,·,·,7.1,98,
COCCn1c(=O)[nH]c2cc(C(=O)NC(C)C)ccc2c1=O,6,5,-2%,-0.8,3,

# From PubChem BioAssay
